High-throughput results from PubChem.
NPR1 antag: antagonists of human natriuretic peptide receptor Npr1; HEK293 hNpr1 GloSensor cGMP, ANP-stimulated luminescence; Potency, µM (top dose mostly 46.3 µM), for inactives: at the highest dose activity change, negative = inhibition, most hits filed as inhibitors; actives 1.6% (n = 76,000); AID 1347048; active = well fitted inhibition curve with a large enough effect; inconclusive = small, poorly fitted or top-dose-only effect; inactive = no such curve, though single readings can be large or run the other way;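 note: nearly all actives have a fitted effect of over 60% in size; nearly all hits also lower the signal before the agonist is added; a reference antagonist and vehicle were the controls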
Target sequence (P16066 whole entry, looked up): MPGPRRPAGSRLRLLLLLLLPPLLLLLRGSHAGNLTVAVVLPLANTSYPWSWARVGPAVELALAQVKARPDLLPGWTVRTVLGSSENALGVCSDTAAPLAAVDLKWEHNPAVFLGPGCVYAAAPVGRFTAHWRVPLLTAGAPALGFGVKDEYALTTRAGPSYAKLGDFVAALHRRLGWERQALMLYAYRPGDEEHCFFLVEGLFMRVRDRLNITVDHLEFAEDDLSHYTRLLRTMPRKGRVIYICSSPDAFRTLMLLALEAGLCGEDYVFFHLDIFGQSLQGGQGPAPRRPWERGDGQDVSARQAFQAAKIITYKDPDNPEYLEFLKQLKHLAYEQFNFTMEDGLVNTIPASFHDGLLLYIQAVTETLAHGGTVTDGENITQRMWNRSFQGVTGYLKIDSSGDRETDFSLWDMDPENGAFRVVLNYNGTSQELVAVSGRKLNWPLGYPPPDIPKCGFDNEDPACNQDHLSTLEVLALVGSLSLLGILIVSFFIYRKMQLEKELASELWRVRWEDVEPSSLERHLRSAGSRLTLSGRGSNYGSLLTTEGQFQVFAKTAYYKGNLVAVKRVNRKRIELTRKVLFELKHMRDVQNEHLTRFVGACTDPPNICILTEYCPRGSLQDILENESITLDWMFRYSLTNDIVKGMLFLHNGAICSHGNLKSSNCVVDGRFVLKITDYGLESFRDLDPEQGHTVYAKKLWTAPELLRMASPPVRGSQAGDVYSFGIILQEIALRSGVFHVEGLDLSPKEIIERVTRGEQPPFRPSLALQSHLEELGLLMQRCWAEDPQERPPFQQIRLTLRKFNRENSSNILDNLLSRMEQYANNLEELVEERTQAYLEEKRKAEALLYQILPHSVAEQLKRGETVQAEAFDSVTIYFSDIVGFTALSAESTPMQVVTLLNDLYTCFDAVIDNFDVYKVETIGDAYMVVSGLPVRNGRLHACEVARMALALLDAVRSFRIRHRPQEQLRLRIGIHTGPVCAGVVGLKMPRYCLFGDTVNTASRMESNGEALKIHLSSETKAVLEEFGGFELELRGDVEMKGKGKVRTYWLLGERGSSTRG
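HEK293 cells stably expressing human Npr1 and cGMP GloSensor pGS-40F, loaded 2 h with 2% GloSensor reagent, given compound 30 min at room temperature. Luminescence read before and 20 min after 0.1 nM hNppA.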
* hit, by the source's call; ? = inconclusive; [ ] = dose if it differs, or a comment. % is set by controls: 0 for no effect and ±100 for the full control effect; potency is the fitted concentration of half-maximal effect. The list is partial; the hit share may differ from the screen's.

SMILES	NPR1 antag
Cc1cccc(CN2CCCC(c3nc(CCOCC4CC4)no3)C2)c1 (configuration not stated)	6%
CCCS(=O)(=O)N1CC(F)(F)C[C@H]1c1nnc(C)o1	-1%
CN(C)CCNC(=O)C(C)(C)Oc1nn(Cc2cccc(Cl)c2)c2ccccc12	?
Cc1ccccc1-c1cc(O)c2c(c1)CN(C(=O)C1CCNCC1)CCO2	0%
O=C(NC1CCN(c2cc(-c3cccs3)[nH]n2)C1)c1cccs1 (configuration not stated)	-12%
Cc1ccc(C)c(C(=O)N2CCc3[nH]nc(C(=O)NCCCc4ccccc4)c3C2)c1	?
Cc1ccc(CN2CCCCCCNC(=O)[C@@H]3CCC[C@@H]32)o1	-3%
COc1ccc(CN2CCNC(=O)C2CC(=O)NCc2ccncc2)cc1OC (configuration not stated)	5%
COCc1nnc2n1CCC(NC(=O)Cc1c(C)noc1C)CC2 (configuration not stated)	4%
Cc1cc(C[C@@H]2COC[C@@H]2NC(=O)C2CCN(C(=O)N(C)C)CC2)on1	0%
COc1ccc(NC(=O)N2CCCC(Cc3nncn3C)C2)cc1 (configuration not stated)	-3%
CCCN(C)c1nccnc1OC1CCN(C(=O)c2ccn[nH]2)C1 (configuration not stated)	-3%
COc1cccc(-c2cc(C(=O)NCCOc3ccccc3)[nH]n2)c1	-19%
COc1ccc(-c2cc(-c3cccnc3)c3cncn3c2)cn1	-9%[70.6 µM]
Cc1ccccc1CN1Cc2nc(-c3cnn(Cc4ccccc4)c3)ccc2OCC1=O	?
CCCCc1nn(CC(=O)NC(CC)c2cccc(C)n2)c(=O)n1CC (configuration not stated)	-1%
O=C(Nc1ccon1)[C@@H]1C[C@@H](c2ccc(F)cc2)N([S+](=O)([O-])c2ccccc2)C1	-16%[70.6 µM]
CN(Cc1ccc(-c2ccccc2)cc1)CC1CCCCC1	9%[70.6 µM]
O=C(Cc1ccsc1)NC1CCCN(c2cc(-c3ccccc3)[nH]n2)C1 (configuration not stated)	-9%
CCc1nc2c(c(-c3ccc(Cl)cc3)n1)CN(Cc1ccccn1)CC2	2%
CN1C(=O)CO[C@H]2CN(S(C)(=O)=O)C[C@H]21	1%[70.6 µM]
O=C1Nc2ccc(/C=C/c3ccccc3)cc2C(=O)N2C[C@H](O)C[C@@H]12	-2%[70.6 µM]
C[S+](=O)([O-])c1ccc(-c2cnc3n[nH]c(-c4ccc5c(c4)OCO5)c3n2)cc1	-6%[70.6 µM]
Cc1nn(Cc2ccccc2)c(C)c1[C@@H]1C=C[C@@H](NC(=O)C2CCCCC2)C1	-16%[70.6 µM]
O=C(Cn1nc2n(c1=O)CCCC2)Nc1ccc2c(c1)OCCO2	-18%
O=C(C1CCCC1)N1CCC2(CC1)CC(N(C(=O)c1ccccc1)C1CC1)CCO2 (configuration not stated)	-14%
O=C(NC1CCN(c2cc(-c3ccccc3)[nH]n2)C1)c1ccccc1F (configuration not stated)	-4%
CCCCC(=O)N1C[C@@H](CO)[C@H](c2nc(-c3ccncc3)no2)C1	1%
CCNC(=O)C1C(c2cccc(NC(=O)c3cccs3)c2)OC(=O)N1Cc1ccc(C)cc1 (configuration not stated)	-1%
COCCOCc1nc(C2CCCCN2C(=O)Nc2cccc(C(F)(F)F)c2)no1 (configuration not stated)	1%
CC(C)NC[C@H]1COCc2nc3ccccc3n21	1%[70.6 µM]
Cc1nn2c(c1-c1cccnc1N1CCOCC1)N(C(=O)Cc1ccc(Cl)cc1)CCC2	1%
COc1ccc(N2CCN(c3cc(C4CC(N)C4)nc(N)n3)CC2(C)C)cc1 (configuration not stated)	-24%
O=C(NC1CCC1)c1ccc2nccn2c1	0%[70.6 µM]
Cn1cnc(S(=O)(=O)N2CCCC(C(=O)NC3CCCC3)CCNC(=O)CC2)c1 (configuration not stated)	2%
COc1cc(OC)cc(-c2nc(C3CC(=O)N(c4ccc(Cl)cc4)C3)no2)c1 (configuration not stated)	1%
COc1ccc(N2CCN(C(=O)Cn3ccn4nc(-c5ccccc5)c(CO)c4c3=O)CC2)cc1	-18%
Cc1ccc(S(=O)(=O)N2CC[C@@H](CC(=O)O)[C@@H](CCN(CCN3CCOCC3)c3ccccc3)C2)cc1	2%
COCC1CN(C(C)=O)CC12CCN(C(=O)Cc1ccc(OC)cc1)CC2 (configuration not stated)	-1%
COc1ccc(CN2CCc3nc(N(C)C)[nH]c(=O)c3CC2)cc1OC	1%
COc1ccc(CNC(=O)[C@@H]2CCC[C@@H](NC(=O)c3nc4ccccc4s3)CN(C)C(=O)C2)cc1	?
CCCCc1ccc(NC(=O)CN2C(=O)NC3(CCOCC3)C2=O)cc1	-14%
CC(C)Cc1cc(C(=O)N2CCc3onc(-c4ccccc4F)c3C2)on1	?
Cc1nc2c(NS(=O)(=O)c3cccc(C#N)c3)cccn2n1	1%
CN(C)C(=O)N[C@@H]1CN[C@H](CO)C1	-17%
COc1cccc(NC(=O)N2C[C@@H](F)C[C@H]2C(=O)N2CCCCC2)c1	-11%
CN1C[C@@H](NS(=O)(=O)c2ccc(Cl)cc2)C[C@H]1c1nc(-c2ccc(F)cc2)no1	-22%
Cc1cccc(OCC2(CNC3CCOCC3)C[C@@H](O)[C@@H](O)C2)n1 (some centres not stated)	-1%[70.6 µM]
COc1ccc(CN2CC[C@H](c3nnc(C)o3)C2)cc1	3%[70.6 µM]
CC1=NOC2(CCN(Cc3ccc(C#N)cc3)C2)C1 (configuration not stated)	1%[70.6 µM]

An excerpt of these results, bar-delimited:
SMILES | NPR1 antag
CN1C(=O)CO[C@H]2CN(S(C)(=O)=O)C[C@H]21 | 1%[70.6 µM]
O=C1Nc2ccc(/C=C/c3ccccc3)cc2C(=O)N2C[C@H](O)C[C@@H]12 | -2%[70.6 µM]
C[S+](=O)([O-])c1ccc(-c2cnc3n[nH]c(-c4ccc5c(c4)OCO5)c3n2)cc1 | -6%[70.6 µM]

Structures from the list above containing an aryl methoxy group:
SMILES	NPR1 antag
COc1ccc(CN2CCNC(=O)C2CC(=O)NCc2ccncc2)cc1OC (configuration not stated)	5%
COc1ccc(NC(=O)N2CCCC(Cc3nncn3C)C2)cc1 (configuration not stated)	-3%
COc1cccc(-c2cc(C(=O)NCCOc3ccccc3)[nH]n2)c1	-19%
COc1ccc(-c2cc(-c3cccnc3)c3cncn3c2)cn1	-9%[70.6 µM]
COc1ccc(N2CCN(c3cc(C4CC(N)C4)nc(N)n3)CC2(C)C)cc1 (configuration not stated)	-24%
COc1cc(OC)cc(-c2nc(C3CC(=O)N(c4ccc(Cl)cc4)C3)no2)c1 (configuration not stated)	1%
COc1ccc(N2CCN(C(=O)Cn3ccn4nc(-c5ccccc5)c(CO)c4c3=O)CC2)cc1	-18%
COCC1CN(C(C)=O)CC12CCN(C(=O)Cc1ccc(OC)cc1)CC2 (configuration not stated)	-1%
COc1ccc(CN2CCc3nc(N(C)C)[nH]c(=O)c3CC2)cc1OC	1%
COc1ccc(CNC(=O)[C@@H]2CCC[C@@H](NC(=O)c3nc4ccccc4s3)CN(C)C(=O)C2)cc1	?
COc1cccc(NC(=O)N2C[C@@H](F)C[C@H]2C(=O)N2CCCCC2)c1	-11%
COc1ccc(CN2CC[C@H](c3nnc(C)o3)C2)cc1	3%[70.6 µM]

(more compounds)
SMILES	NPR1 antag
COc1cc(=O)n2c(c1C(=O)NCc1cc(F)cc(F)c1)CCCC2	-1%
CC(C)(C)CC(=O)Nc1nc2c(s1)C[C@@H]1[C@](C)(CO)[C@H](O)CC[C@@]1(C)[C@@H]2CC(=O)Nc1ccccc1	5%
CCCCNC(=O)C1CCN(C(=O)c2nnn3c2COC(c2ccc(OC)cc2)C3)CC1 (configuration not stated)	-1%
O=C(c1ccc(N2CCC(O)CC2)nc1)N1CCC(Oc2cccnc2)CC1	2%
CCOc1ccccc1CN1CCN(c2ccnc(N)n2)CC1CCO (configuration not stated)	0%
Cc1cc(C)cc(C(=O)N2CCC(Oc3ncccc3C(=O)N(C)C)C2)c1 (configuration not stated)	3%
CCn1c(=O)c2c(cc(C)n2C)n(CC(=O)Nc2ccccc2F)c1=O	4%
COc1ccc(CC(=O)Nc2ccc3ncnc(N4CCCC4)c3c2)cc1Cl	-3%
O=C1CCC2(CCCN(C(=O)c3ccc(=O)[nH]c3)C2)CN1CCc1cnc[nH]1 (configuration not stated)	3%
O=C(C[C@H]1NC(=O)c2ccccc2NC1=O)Nc1cccc(C(F)(F)F)c1	0%
CC(C)N1C(=O)C(CC(=O)NCC2CCN(Cc3ccccc3F)CC2)=C2CCCCC21 (configuration not stated)	-3%
O=C(CCc1nc2ccccc2[nH]1)N1CCC(c2nc(CCOCC3CC3)no2)C1 (configuration not stated)	2%
CCOc1ccc(S(=O)(=O)N2CCC(C3CCN(C(C)=O)CC3)C2)cc1 (configuration not stated)	-19%
O=C(COc1ccc(F)cc1)N1CCC(c2noc(-c3ccncc3)n2)C1 (configuration not stated)	-14%
COc1ccc(NC(=O)Cn2ccn3nc(-c4ccccc4)c(CO)c3c2=O)cc1OC	2%
O=C(O)C1c2ccccc2CC(=O)N1Cc1ccccc1 (configuration not stated)	-3%
CCOCC(=O)N1CCCn2ccnc2C1CC (configuration not stated)	10%
Cc1cc(Cn2cc3c4c(cccc42)[C@H](CC(C)C)N[C@H](C(=O)NCc2nccs2)C3)no1	-3%
CN(CC1CC1)C1CCc2ccccc21 (configuration not stated)	24%[70.6 µM]
O=C(NC1CCNC1)C1CCN(c2nc(-c3ccccc3)nc3c2CCC3)CC1 (configuration not stated)	-1%
O=C1C(N2CCN(S(=O)(=O)c3ccc(Cl)cc3)CC2)CCN1CCc1ccccc1 (configuration not stated)	-2%
Cc1ccc(NC(=O)N2CCc3c(c4ccccc4n3C)C2)cc1C	-20%
CNC(=O)N1CCC(N2C(=O)C3(CCCCC3)C2c2ccccc2)CC1 (configuration not stated)	2%
CC(C)Oc1ccc(CN2CC(C(=O)NCc3ccncc3)C3(CCOCC3)C2)cc1 (configuration not stated)	-8%
CN1C(=O)CCC2(CNC(=O)c3ccccn3)CCC=C12 (configuration not stated)	15%
Cc1c(CC(=O)NCc2cccnc2)c2c(n1CC(C)C)CC(C)(C)CC2=O	8%
O=C(NCc1ccc(F)c(Cl)c1)C1CCN(C(=O)c2ncn3c2COC(c2ccccc2)C3)CC1 (configuration not stated)	-17%
CC1=C[C@@H](CNC(C)C)[C@H](C(C)C)C[C@H]1Cc1nnc(-c2ccncc2)o1	-8%[70.6 µM]
CCCNC1(Cc2cc(-c3ccc(F)cc3)on2)COC1	1%[70.6 µM]
CCOCCOC1CCN(C(=O)c2ccc3cc[nH]c3c2)CC1	5%
CCCNC1(Cc2cc(C(=O)N3CCCCC3)on2)COC1	-2%[70.6 µM]
C[C@H]1[C@@H]2[C@H]3OC(=O)[C@H](C)C3CC[C@@]2(C)CC[C@@H]1NC(=O)c1ccncc1 (some centres not stated)	-4%[70.6 µM]
CC(=O)N1CCC(N2C[C@@H]3C[C@H]2C(=O)N(C)c2ccccc2O3)CC1	3%[70.6 µM]
O=C(c1n[nH]c(=O)c2ccccc12)N1CCCCCC1c1nnc(-c2ccccc2)o1 (configuration not stated)	16%
CC(=O)NCC(=O)NC1CC(C)(C)Cc2nc(N(C)Cc3ccccc3)ncc21 (configuration not stated)	-1%
CCC(=O)N(C1CCOCC1)C1CCN(S(=O)(=O)c2c(C)nn(C)c2C)CC1	2%
COc1ccccc1-c1nnc([C@H]2CCN(Cc3ccc(F)cc3)C2)o1	3%[70.6 µM]
Cc1cn2nc(C(=O)N3CCN(c4cccc(Cl)c4)CC3)cc2c(N2CCCC2)n1	1%
Fc1ccccc1-c1cnc2n[nH]c(-c3ccccc3)c2n1	-19%[70.6 µM]
O=C(c1ccccc1Cl)N1CCc2c(nc3cc(-c4ccccc4)[nH]n3c2=O)C1	5%

Entries from the list above with a CF3 group:
SMILES	NPR1 antag
COCCOCc1nc(C2CCCCN2C(=O)Nc2cccc(C(F)(F)F)c2)no1 (configuration not stated)	1%
O=C(C[C@H]1NC(=O)c2ccccc2NC1=O)Nc1cccc(C(F)(F)F)c1	0%

Next entries.
SMILES	NPR1 antag
Cc1nnc(-c2cc(-c3cccc(O)c3)ccn2)n1-c1ccccc1	-26%[70.6 µM]
COc1ccc(CNC(=O)N2CC(Oc3cccc(-c4nc(C)no4)c3)C2)cc1	-21%
CC(C)CNC(=O)Cc1c[nH]c2ncc(-c3cnn(C)c3)cc12	5%[70.6 µM]
COC(=O)[C@@H]1C[C@@H](NC(=O)c2cc(-c3ccc(C)o3)[nH]n2)CN1C	-1%
CN(C)CC1(O)CCC2(CCN(C(=O)CC3CCCC3)CC2)CC1	-13%
CN(C)CCN1CC2(CCCN(C(=O)CN(C)c3ccccc3)C2)CCC1=O (configuration not stated)	-2%
CN1CCCCCCN(C(=O)COc2ccc(F)cc2)[C@H]2CCC[C@H]2C1=O	4%
COc1ccc(CN2CCNc3cc(Nc4ccccc4)ncc3C2)cn1	-16%[70.6 µM]
Cc1ncsc1C1N(C2CCNCC2)C(=O)C12CCCC2 (configuration not stated)	16%
O=S(=O)(c1cccnc1)N1CCCCC1CCc1cccs1 (configuration not stated)	2%
CCC(C)NC(=O)N1CC(Oc2ccc(-c3noc(C4CCOCC4)n3)cc2)C1 (configuration not stated)	7.9µM*
O=C(CCn1ccn2nc3c(c2c1=O)CCCC3)Nc1ccc(Oc2ccccc2)cc1	?
Cc1ccc(C2(C(=O)N[C@@H]3COCC[C@@H]3OCc3ccccc3)CC2)cc1	-10%
CN1CCCN(C(=O)c2ccccc2)c2ccccc21	-6%
COc1ccc(Cl)cc1C(=O)N1[C@@H]2CC[C@H]1CC(NC(=O)c1ccncc1)C2 (some centres not stated)	7%
Cc1cc(C)n2nc(CC(=O)NC[C@@H]3C[C@H](F)CN3)nc2n1	-2%
COC1CCC12CCN(C(=O)C1CC1)CC2 (configuration not stated)	0%
